Bioassay records from PubChem BioAssay.
CtBP-E1A blk: qHTS Assay for Inhibitors of the CtBP/E1A Interaction. CtBP / adenovirus E1A interaction (AlphaScreen). 340,000 tested, 0.49% active. AlphaScreen GST-E1A/His-CtBP binding, 1536-well; stronger effect = lower value; control for the full effect not named in the record. activity change, % (concentration not given with the values); in the data active means activity change below about -65%; inconclusive means about -30% to -65%; inactive means above about -30%; also: % is scaled to controls: 0 for no effect and ±100 for the full control effect
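In 5 uL wells, 23 nL compound meets equimolar GST-E1A and His-CtBP (5X stock 125 nM each) for 2 h, 37 °C. Beads (5X, 50 ug/mL) then 1 h, 37 °C, dark.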
Six1-Eya2 inh: qHTS Assay for Inhibitors of the Six1/Eya2 Interaction | Homeobox protein SIX1 (Homo sapiens) + Protein phosphatase EYA2 (Homo sapiens), … | AlphaScreen GST-Six1/His-Eya2 binding, biochemical; stronger effect = lower value; control for the full effect not named in the record | activity change, % (no concentration beside the values) | 360,000 tested, 0.56% active | AID 651725, 2012; in the data active = activity change below about -65%; inconclusive = about -30% to -65%; inactive = above about -30%; also: % is scaled to controls: 0 for no effect and ±100 for the full control effect; compound concentration not given in the record
Target sequence (O00167 whole entry, looked up): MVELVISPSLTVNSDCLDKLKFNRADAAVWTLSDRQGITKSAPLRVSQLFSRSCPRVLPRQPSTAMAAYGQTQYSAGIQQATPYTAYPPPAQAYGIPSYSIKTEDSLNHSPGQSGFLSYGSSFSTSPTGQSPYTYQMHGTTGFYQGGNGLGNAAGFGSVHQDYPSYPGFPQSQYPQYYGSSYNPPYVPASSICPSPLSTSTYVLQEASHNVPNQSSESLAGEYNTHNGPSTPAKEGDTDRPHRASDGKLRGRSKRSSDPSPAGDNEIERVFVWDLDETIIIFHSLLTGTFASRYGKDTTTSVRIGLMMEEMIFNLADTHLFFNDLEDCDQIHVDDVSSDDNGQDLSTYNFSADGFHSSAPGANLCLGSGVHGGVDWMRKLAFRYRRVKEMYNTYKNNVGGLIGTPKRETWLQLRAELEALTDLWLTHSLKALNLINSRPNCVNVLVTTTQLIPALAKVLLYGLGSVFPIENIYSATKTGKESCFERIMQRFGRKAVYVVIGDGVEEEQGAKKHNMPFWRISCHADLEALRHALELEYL
Target sequence (Q15475 whole entry, looked up): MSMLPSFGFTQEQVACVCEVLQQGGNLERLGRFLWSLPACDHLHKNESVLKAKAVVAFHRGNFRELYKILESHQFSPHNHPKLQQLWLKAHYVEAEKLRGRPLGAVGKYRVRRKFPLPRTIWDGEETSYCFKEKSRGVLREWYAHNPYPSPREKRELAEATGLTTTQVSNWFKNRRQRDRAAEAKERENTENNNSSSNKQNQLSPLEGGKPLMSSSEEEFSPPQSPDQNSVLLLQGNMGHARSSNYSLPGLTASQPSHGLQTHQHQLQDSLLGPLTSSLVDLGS
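GST-Six1 + His-Eya2 (5X stock: 250/500 nM); Tris pH 8.0, 300 mM NaCl, 0.05% BSA, 0.02% Tween 20; GSH donor/Ni acceptor beads; 1 h 37 °C dark; AlphaScreen readout.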
TRPML1 agonist: qHTS for Agonists of the Human Mucolipin Transient Receptor Potential 1 (TRPML1); activation, % (no concentration beside the values); TRPML1-expressing cells, Ca2+ dye fluorescence, FDSS; host cell line not named in the record; reference of the full effect not given here; Mucolipin-1 (Homo sapiens), Q9GZU1; 410,000 tested, 0.12% active; in the data active = activation above about 50%; inconclusive = about 30% to 50%; inactive = below about 30%; also: 0% is about no effect; the text of the record puts the active cut at 80%
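Tetracycline-induced TRPML1-DL cells are seeded and incubated overnight before loading with a no-wash Ca2+ dye and quencher. Agonist activity is taken from the 110 s fluorescence read following compound pin-transfer on an FDSS, before EC80 54-4 challenge.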
PINK1 modulator: A Quantitative High throughput Screen to Identify Chemical Modulators of PINK1 Expression. PINK1 immunofluorescence, high-content cytometry, 24 h. Potency, µM (doses to about 76.6 µM), without a hit: at the top dose activation (PINK1 increase), most hits filed as activators. 410,000 tested, 0.2% active. AID 624263, 2012; active = well fitted activation curve with a large enough effect; inconclusive = small, poorly fitted or top-dose-only effect; inactive = flat fitted curve, though single readings scatter; cell line not stated here;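 also: potency is read from the fitted curve at half-maximal effect; % of control where 0% means no effect; nearly all actives have a fitted effect of over 65% in size; a mitochondrial uncoupler was the plate control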
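Readout is PINK1 immunofluorescence, quantified alongside mitochondrial, cell and nuclear markers by laser-scanning microplate cytometry. Cells from a stable line were exposed to compound titrations (5 concentrations) for 24 hours, with CCCP controls.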
D2 agonist: Beta-Arrestin HTS for Positive Allosteric Modulators of the Human D2 Dopamine Receptor: Agonists | activation, % (concentration not given with the values) | 360,000 tested, 0.084% active | D(2) dopamine receptor (Homo sapiens), P14416 | DiscoveRx PathHunter D2 beta-arrestin, luminescence, 90 min; 100% = 57 uM dopamine signal | AID 624465, 2012; in the data active = activation above about 40%; inconclusive = about 15% to 40%; inactive = below about 15%; also: compound concentration not given in the record; the text of the record calls up to 30% inactive
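Agonist mode: compounds alone added to overnight-plated D2 PathHunter cells for 90 min at 37 C, with 57 uM final dopamine (EC100) defining full response. Beta-arrestin recruitment detected by chemiluminescent reagent, read after 1 h at ambient temperature.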
D2 potentiator: Beta-Arrestin HTS for Positive Allosteric Modulators of the Human D2 Dopamine Receptor: Potentiators. D(2) dopamine receptor (Homo sapiens), P14416. DiscoveRx D2 beta-arrestin cells, luminescence, 90 min; 100% = 57 uM dopamine signal. potentiation, % (concentration not given with the values). 360,000 tested, 0.23% active; active = potentiation of 50% or more; inconclusive = 30% to 50%; inactive = 30% or less;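 also: compound concentration not given in the record; tested on top of an EC20 dose of dopamine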
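PathHunter D2 cells, attached overnight at 37 deg C, received compound in DMSO plus dopamine at EC20 (50 nM final) for 90 min at 37 deg C. Beta-arrestin recruitment was read as luminescence after 1 h with detection reagent at ambient temperature.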
* marks the source's active call; other numbers are inactive results; ? = inconclusive; nt = not tested or not shown; & = joins results of further samples; [ ] = remark or other dose.

structure | Six1-Eya2 inh | D2 potentiator | TRPML1 agonist | CtBP-E1A blk | PINK1 modulator | D2 agonist
COC(=O)C1CCN(C(=O)CC(NC(=O)C(F)(F)F)c2cccs2)CC1 (configuration not stated) | 0 | -3 | 0.5 | nt | -0.3% | 2.0
COc1ccc(CNC(=O)C2CSC(=O)C2)cc1 (configuration not stated) | 20 | 2 | 0.1 | 0 | -0.8% | -2.5
COC(=O)c1ccc(-c2ccco2)n1Cc1cccc(C)c1 | -25 | -7 | 0.0 | -5 | -1.9% | -3.5
COc1c(OC)c2[nH]c(=O)cc3c4ccccc4n(c1=O)c23 | -6 | -3 | 4.4 | -9 | -0.2% | -5.0
COC(=O)C1CN(C(=O)COc2ccc(Cl)c(C)c2)c2ccccc2O1 (configuration not stated) | 16 | 2 | 0.0 | 4 | 3.0% | -2.3
COc1ccc(N2CCN(C(=O)c3cc(=O)c4ccc(C)cc4o3)CC2)cc1 | -13 | -10 | 1.5 | nt | 1.2% | 2.4
CC(=O)c1n[nH]nc1NC(=O)c1ccccc1 | -14 | 9 | 3.4 | -21 | ? | 3.4
Cc1ccc(NC(=O)Cn2c(-c3ccc(F)cc3)cnc2SCC(=O)Nc2c(C)cccc2C)cc1 | -13 | -14 | 0.1 | -17 | 15% | -0.6
COc1ccc(/C=C2\SC(=O)N(CC(=O)Nc3ccccc3O)C2=O)cc1OC | -7 | 2 | -0.7 | -4 | 4.2% | -0.4
CCOC(=O)Cc1nnc(NC(=O)CSc2ccc(C)cc2)s1 | 9 | 4 | 2.1 | 3 | 2.7% | 1.2
Nc1ccn([C@@H]2O[C@H](CO)[C@@H](O)C2O)c(=O)n1 (some centres not stated) | 4 | -6 | -0.7 | -1 | -0.3% | -4.2
CC(Sc1ccccc1)C(=O)N1CCN(S(=O)(=O)c2ccc(Cl)cc2)CC1 (configuration not stated) | 3 | 21 | -0.3 | -11 | -0.1% | -1.0
CN(CCNC(=O)c1ccc(/C=N/O)nc1)Cc1ccccc1 | -29 | -36 | -0.8 | -23 | 0.7% | -5.5
O=C(Nc1nccs1)c1ccc(Cl)c(S(=O)(=O)N2CCOCC2)c1 | -17 | -11 | -0.3 | -8 | 1.6% | -4.1
CCN(CC)C(=O)CSc1nnc(-c2ccncc2)n1N | 6 | -6 | 2.7 | 12 | 6.7%[38.3 µM] | -3.5
COc1cccc(C(C(=O)NC(C)(C)C)N(CC(C)C)C(=O)CCC(=O)Nc2cc(C)on2)c1OC (configuration not stated) | -2 | -7 | -0.4 | 3 | 4.3% | -0.3
CCOC(=O)C1CCN(c2c(NCc3ccc(C(=O)NCCOC)cc3)c(=O)c2=O)CC1 | -7 | 3 | 1.4 | 5 | 2.3% | 2.5
CCc1cc(Cn2nc(-c3ccccc3)cc2C(=O)NCc2ccc(C)cc2)on1 | 3 | -24 | -0.7 | 6 | -0.8% | 0.3
O=c1c2ccccc2[nH]c(=S)n1-c1cccc(S(=O)(=O)N2CCCC2)c1 | -1 | -12 | 1.1 | -17 | 0.9% | -3.3
CCC(CC)C(=O)N1CCN(Cc2ccc3c(c2)OCO3)CC1 | -1 | -25 | -0.6 | -3 | 2.3% | -3.4
COC(=O)c1cc(C(=O)OCC(=O)NC2CCCC2)cc([N+](=O)[O-])c1 | 0 | 3 | -0.8 | nt | -0.2% | 2.4
O=C(N/N=C/c1cccs1)c1cncc(Br)c1 | -19 | -18 | 2.2 | -11 | -1.1% | -4.0
O=C1CCC(C(=O)N2CCCC(C(=O)c3ccc4c5c(cccc35)CC4)C2)=NN1 (configuration not stated) | -1 | -2 | 0.6 | 10 | 5.3% | 0.1
O=C(CSc1ncnc2c1oc1ccccc12)Nc1cccc(Cl)c1 | 3 | 1 | 2.5 | 6 | 12% | -1.8
Cc1noc(C)c1COC(=O)c1ccc(F)c(S(=O)(=O)N2CCOCC2)c1 | 4 | -2 | 3.1 | 2 | 2.8% | 7.2
CC(C)CC(=O)NC(=S)Nc1ccc(S(=O)(=O)Nc2nccs2)cc1 | 0 | 2 | 0.3 | 0 | 1.5% | -0.2
COCC(=O)N/N=C/c1ccc(Sc2nc3ccccc3s2)o1 | -6 | -6 | -0.1 | 4 | 1.8% | -0.5
Cc1ccc(C(=O)O/N=C(\N)Cc2ccc([N+](=O)[O-])cc2)c(Cl)c1 | -9 | -4 | 0.9 | nt | 0.3% | ?
COc1ccc(C(=O)NCCc2ccccc2)cc1OC | -6 | -3 | 0.5 | 4 | -0.5% | -2.8
CC(C)OCC(O)CN1CCNCC1 (configuration not stated) | 3 | -9 | 0.5 | -5 | -2.3% | -1.4
NCC(=O)Nc1ccc(Cl)cc1C(=O)c1ccc[nH]1 | -81* | 3 | 0.2 | nt | -1.2% | 1.5
COc1ccc(C(=O)NC(=S)NC(C)(C)C)cc1Br | -19 | -20 | 0.0 | -16 | -0.6% | -5.6
CN1CCCC(C(=O)C(C#N)c2ccccc2)C1 (configuration not stated) | 0 | -18 | 2.0 | 3 | -2.3% | -4.3
O=C(NCc1ccc(Cl)cc1)C1CCC(CNS(=O)(=O)c2ccccc2)CC1 (configuration not stated) | 27 | 0 | 0.0&1.2 | nt | 5.0%&8.9% | ?
Cc1nnc2n1N=C(c1ccc(OC(F)F)cc1)C(C)S2 (configuration not stated) | -10 | -5 | -0.3 | -12 | 0.6% | -2.3
CC(=O)Oc1cccc(NC(=O)c2ccc3c(c2)C(=O)N(CC(C)C)C3=O)c1 | -2 | -1 | 3.8 | 0 | -2.3% | 0.2
Cc1cc(C)n2nc(-c3ccc(F)cc3)nc2n1 | 5 | -6 | -0.4 | -6 | 1.1% | 2.7
CCC1CCc2sc(C(=O)NCc3ccccn3)cc2C1 (configuration not stated) | -5 | -11 | 2.7 | -2 | -0.2% | -0.1
COc1ccc(CCN(C)C(=O)C(CCSC)NC(=O)c2ccco2)cc1OC (configuration not stated) | -1 | -2 | 0.6 | 2 | 2.7% | -1.3
CCN(CC)C(=O)[C@H]1C[C@H](CC(=O)NC(C)(C)C)C(=O)N2CCc3c([nH]c4cc(-c5ccco5)ccc34)[C@]12C | -7 | -5 | 0.7 | -9 | 0.9% | -0.2
Cc1onc(-c2ccccc2)c1C(=O)N(Cc1ccco1)Cc1cccs1 | -7 | -10 | 1.5 | -29 | -1.1% | -2.7
CCOC(=O)CC1COc2ccccc2N1C(=O)c1ccc(F)cc1 (configuration not stated) | 5 | -11 | -1.1 | 8 | 0.0% | 6.8
CC(C)c1ccc(Nc2nnc(SC3CCOC3=O)s2)cc1 (configuration not stated) | -14 | -7 | 0.4 | 5 | 7.7% | -5.5
CCOc1ccc2nc(N/C(N)=N/S(=O)(=O)c3ccc(C)cc3)nc(C)c2c1 | -2 | 9 | -0.5 | -4 | 2.1% | -1.1
CC(=O)Nc1ccc(OCC(=O)NC(C)C(C)C)cc1 (configuration not stated) | -5 | -7 | -0.8 | 3 | 1.0% | -3.7
Cc1c(NC(=O)CN2C(=O)c3ccccc3C2=O)c(=O)n(-c2ccccc2)n1C | 1 | -10 | -0.4 | 1 | 0.4% | -4.5
CCCCNC(=O)c1nc(C2CCN(S(=O)(=O)c3cccc(C(F)(F)F)c3)CC2)oc1-c1ccccc1 | 13 | 0 | 1.0 | 13 | 0.0% | -2.1
Cc1cccc(C(C)C)c1NC(=O)c1cccnc1 | -9 | -12 | -0.6 | 7 | -0.2% | -4.1
FC(F)(F)c1cccc(OCCOCCn2cncn2)c1 | 1 | -14 | -0.1 | -2 | -1.1% | -2.4
O=C(N/N=C/c1ccccc1O)C(=O)Nc1ccccn1 | -88* | -10 | 1.0 | nt | -0.2% | 0.7
CCC(C)[C@H](NC(=O)N1CCn2c1nc1ccccc12)C(=O)NCC1CCCO1 (some centres not stated) | 5 | -12 | 0.3 | 2 | -0.7% | -6.0
O=S(=O)(Cc1ccccc1)N1CCN(Cc2ccc(F)cc2Cl)CC1 | 9 | -10 | -0.3 | 0 | 5.7% | -3.7
Cc1nn(CC(=O)NCC(C)c2ccccc2)c(=O)c2cc(-c3ccccc3)nn12 (configuration not stated) | 1 | -7 | 0.9 | 0 | 1.5% | -0.2
Cc1[nH]nc2ncc(C(=O)c3ccccc3O)cc12 | 12 | -7 | 3.2 | 0 | -1.0% | 0.5
COc1cccc(C(c2nnnn2CC2CCCO2)N2CCN(C(=O)c3ccco3)CC2)c1OC (configuration not stated) | 0 | -3 | 0.5 | -18 | -3.5% | -2.0
COc1ccc(NC2c3ncccc3C(=O)N2Cc2cccs2)cc1 (configuration not stated) | 0 | -6 | 1.3 | nt | 0.5% | -6.7
O=C1/C(=C\c2ccco2)SC(=S)N1C1CCS(=O)(=O)C1 (configuration not stated) | -17 | 0 | 0.1 | -20 | -0.6% | -0.1
COc1c2ccccc2nc2ccccc12 | -1 | -5 | -0.3 | 12 | 0.7% | 1.6
Oc1ccc(/C=N/Nc2ncc(Cl)cc2Cl)cc1 | -9 | 0 | 1.4 | -7 | 1.7% | -5.8
CCCN(CC(=O)Nc1ccccc1C)C(=O)CCCc1c[nH]c2ccccc12 | -7 | -8 | 1.0 | 4 | 2.2% | 2.2

Single records, as listed above. Screens in order: Six1-Eya2 inh, D2 potentiator, TRPML1 agonist, CtBP-E1A blk, PINK1 modulator, D2 agonist
`COc1c(OC)c2[nH]c(=O)cc3c4ccccc4n(c1=O)c23` in the list: -6, -3, 4.4, -9, -0.2%, -5.0
`COc1ccc(C(=O)NCCc2ccccc2)cc1OC` in the list: -6, -3, 0.5, 4, -0.5%, -2.8

More structures follow:
structure | Six1-Eya2 inh | D2 potentiator | TRPML1 agonist | CtBP-E1A blk | PINK1 modulator | D2 agonist
Cc1cc(C)nc(SCc2nnc(SCC(N)=O)o2)n1 | 4 | -3 | 3.3 | 6 | 0.2% | -3.9
CC(C)(C)c1ccc(-c2noc(CCC(=O)Nc3cccnc3)n2)cc1 | 9 | -1 | 2.9 | 3 | 1.9% | 4.9
COc1cccc(C2=NN(S(C)(=O)=O)C(c3cccs3)C2)c1 (configuration not stated) | -1 | -11 | -0.9 | 2 | -0.6% | -5.1
CCOC(=O)CCCSc1nc(-c2ccc3c(c2)OCO3)cc(C(F)(F)F)c1C#N | 12 | -5 | 0.8 | 1 | 0.8% | -1.7
COc1ccccc1CCCNC(=O)C1CCC(=O)N(CCc2ccc(Cl)cc2)C1 (configuration not stated) | -1 | -1 | 0.7 | -9 | 3.8% | -0.6
COc1ccc(NC(=O)CSc2nnc3ccc(-c4cccnc4)nn23)cc1 | -6 | -24 | 0.3 | 5 | 0.7% | -3.5
CCCCn1c(SCC(=O)N2CCCC2)nc2c1c(=O)n(C)c(=O)n2C | 0 | -2 | 1.1 | 5 | 5.6%[38.3 µM] | -3.1
Cc1c(NC(=O)C(C)OC(=O)CNC(=O)c2ccc(C(C)(C)C)cc2)c(=O)n(-c2ccccc2)n1C (configuration not stated) | 0 | 13 | 0.0 | -3 | -1.7% | 0.0
